A1 apoptosis 2 – A1 inhibition read as caspase activation. MEF A1-2A-BIM cells, caspase-Glo luminescence, 3 h; percent of clofoctol response, DMSO zero. caspase activation, % (no concentration beside the values). 24,000 tested, under 10 active; in the data active = caspase activation above about 5.9%;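 note: wells of about 30 µL received 50 nL stock; the first replicate is given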
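System: mouse embryonic fibroblasts co-expressing A1 and BIM (A1-2A-BIM), primed for A1 dependence; amount: 2500 cells/well; doses: 50 nL pinned compound; schedule: cells settled overnight, compound exposure 3 h at 37 °C, 5% CO2; detection: Caspase-Glo 3/7 luminescence, 1 h at room temperature; read-out: Caspase-3/7 activation, seen as rise in luminescence signal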
An asterisk follows results filed as active.

Structure | A1 apoptosis 2
C[C@@H]1CN([C@@H](C)CO)C(=O)c2cccc(NC(=O)C3CCOCC3)c2O[C@@H]1CN(C)S(=O)(=O)c1ccc(F)cc1 | -0.9
C[C@H]1CN([C@@H](C)CO)C(=O)c2cc(NS(=O)(=O)c3ccc(F)cc3)ccc2O[C@H]1CN(C)Cc1ccccc1 | 0.5
Cc1noc(C)c1S(=O)(=O)Nc1ccc2c(c1)C(=O)N([C@H](C)CO)C[C@H](C)[C@H](CN(C)CC1CCCCC1)OCCCC[C@@H](C)O2 | 0.2
Cc1noc(C)c1NC(=O)Nc1ccc2c(c1)C(=O)N([C@@H](C)CO)C[C@H](C)[C@@H](CN(C)C(=O)Nc1c(C)noc1C)O2 | 0.8
Cc1ccc(S(=O)(=O)N(C)C[C@@H]2OCCCC[C@H](C)Oc3ccc(NC(=O)Nc4ccc5c(c4)OCO5)cc3C(=O)N([C@@H](C)CO)C[C@H]2C)cc1 | -0.6
C[C@H](CO)N1C[C@H](C)[C@H](CN(C)S(=O)(=O)c2cn(C)cn2)OCCCC[C@H](C)Oc2ccc(NS(=O)(=O)c3ccccc3)cc2C1=O | -0.6
C[C@H](CO)N1C[C@H](C)[C@H](CN(C)Cc2ccc3c(c2)OCO3)Oc2c(NC(=O)c3ccncc3)cccc2C1=O | 1.5
Cc1noc(C)c1S(=O)(=O)Nc1ccc2c(c1)C(=O)N([C@H](C)CO)C[C@H](C)[C@H](CN(C)C(=O)NC1CCCCC1)O2 | -0.3
C[C@H]1CN([C@@H](C)CO)C(=O)Cc2cc(NS(=O)(=O)c3ccccc3)ccc2O[C@@H]1CN(C)Cc1ccc2c(c1)OCO2 | 1.0
C[C@@H]1CN([C@@H](C)CO)C(=O)c2cc(NC(=O)Nc3ccc(C(F)(F)F)cc3)ccc2O[C@H]1CN(C)C(=O)NC1CCCCC1 | 0.1
C[C@@H]1CN([C@@H](C)CO)C(=O)c2cc(NC(=O)C3CCCCC3)ccc2O[C@@H]1CN(C)Cc1ccc(Oc2ccccc2)cc1 | -1.0
C[C@H]1CCCCO[C@@H](CN(C)C(=O)Nc2ccccc2)[C@@H](C)CN([C@@H](C)CO)C(=O)c2cc(NC(=O)c3ccccc3)ccc2O1 | 0.2
C[C@H]1CN([C@@H](C)CO)C(=O)CCCn2cc(nn2)CO[C@@H]1CN(C)S(=O)(=O)c1ccc(-n2cccn2)cc1 | -0.2
COc1ccc(NC(=O)Nc2ccc3c(c2)CC(=O)N([C@H](C)CO)C[C@H](C)[C@@H](CN(C)Cc2ccc(Cl)c(Cl)c2)O3)cc1 | 0.0
C[C@@H]1CN([C@@H](C)CO)C(=O)CCCn2nncc2CO[C@@H]1CN(C)S(=O)(=O)c1ccccc1F | -1.8
COc1cc(/C=N/NC(=O)CCCCC(=O)NO)c(Br)cc1O | 0.4
Cc1noc(C)c1S(=O)(=O)Nc1ccc2c(c1)CC(=O)N([C@H](C)CO)C[C@@H](C)[C@H](CN(C)C(=O)Nc1ccc(C(F)(F)F)cc1)O2 | -1.1
CNC[C@@H]1OCCCC[C@@H](C)Oc2ccc(NS(=O)(=O)c3c(C)noc3C)cc2C(=O)N([C@H](C)CO)C[C@H]1C | 0.7
Cc1noc(C)c1S(=O)(=O)N(C)C[C@@H]1OCCCC[C@@H](C)Oc2ccc(NC(=O)CCCN(C)C)cc2C(=O)N([C@@H](C)CO)C[C@H]1C | -1.4
C[C@H]1CN([C@@H](C)CO)C(=O)c2cccc(NC(=O)Nc3ccc4c(c3)OCO4)c2O[C@@H]1CN(C)C(=O)Nc1ccc(F)cc1 | -2.4
COc1ccc(S(=O)(=O)N(C)C[C@H]2OCCCC[C@H](C)Oc3ccc(NC(=O)c4ccccc4)cc3C(=O)N([C@H](C)CO)C[C@@H]2C)cc1 | -0.6
Cc1ccc(S(=O)(=O)N(C)C[C@@H]2OCCCC[C@@H](C)Oc3ccc(NC(=O)Nc4ccc(C(F)(F)F)cc4)cc3C(=O)N([C@H](C)CO)C[C@H]2C)cc1 | 2.5
C[C@@H]1CN([C@H](C)CO)C(=O)c2cc(NC(=O)Nc3ccc4c(c3)OCO4)ccc2O[C@@H](C)CCCCO[C@H]1CN(C)Cc1ccncc1 | 0.2
Cc1ccc(S(=O)(=O)Nc2ccc3c(c2)C(=O)N([C@H](C)CO)C[C@H](C)[C@H](CN(C)S(=O)(=O)c2ccc(F)cc2)OCCCC[C@@H](C)O3)cc1 | -1.0
C[C@@H]1CN([C@@H](C)CO)C(=O)c2cc(NC(=O)CCC(F)(F)F)ccc2O[C@@H](C)CCCCO[C@@H]1CN(C)C | 0.1
C[C@@H]1CN([C@H](C)CO)C(=O)c2cc(NC(=O)Nc3cccc4ccccc34)ccc2O[C@@H]1CN(C)C(=O)NC1CCCCC1 | 0.9
C[C@@H]1CCCCO[C@H](CN(C)S(C)(=O)=O)[C@H](C)CN([C@@H](C)CO)C(=O)c2cc(NS(=O)(=O)c3ccc(Cl)cc3)ccc2O1 | 1.8
C[C@@H]1CN([C@H](C)CO)C(=O)c2cc(NS(=O)(=O)c3cn(C)cn3)ccc2O[C@H]1CN(C)Cc1ccccc1 | 0.8
C[C@H]1CN([C@@H](C)CO)C(=O)Cc2cc(NC(=O)CCCCCC(=O)Nc3ccccc3N)ccc2O[C@H]1CN(C)Cc1ccccc1 | -0.9
C[C@@H]1CCCCO[C@@H](CN(C)Cc2ccc(C(F)(F)F)cc2)[C@@H](C)CN([C@@H](C)CO)C(=O)c2cc(NS(=O)(=O)c3cccs3)ccc2O1 | 0.0
Cc1noc(C)c1NC(=O)N(C)C[C@@H]1OCCCC[C@H](C)Oc2ccc(NS(=O)(=O)c3cn(C)cn3)cc2C(=O)N([C@@H](C)CO)C[C@@H]1C | 0.1
CNC[C@H]1Oc2ccc(NC(=O)CCC(F)(F)F)cc2C(=O)N([C@@H](C)CO)C[C@@H]1C | -0.9
CNC[C@H]1Oc2ccc(NC(=O)Nc3cccc4ccccc34)cc2CC(=O)N([C@H](C)CO)C[C@H]1C | -1.1
CC(C)OC(=O)N(C)C[C@@H]1OCc2cnnn2CCCC(=O)N([C@H](C)CO)C[C@@H]1C | -0.1
C[C@@H]1CN([C@@H](C)CO)C(=O)c2cccc(NC(=O)NC3CCCCC3)c2O[C@@H]1CN(C)S(=O)(=O)c1ccc(F)cc1 | 0.2
COc1ccc(S(=O)(=O)Nc2ccc3c(c2)C(=O)N([C@H](C)CO)C[C@H](C)[C@H](CN(C)C(=O)Nc2c(C)noc2C)O3)cc1 | -1.0

Some of the entries above in another layout.
Molecule: C[C@@H]1CN([C@H](C)CO)C(=O)c2cc(NC(=O)Nc3cccc4ccccc34)ccc2O[C@@H]1CN(C)C(=O)NC1CCCCC1
  A1 apoptosis 2: 0.9
Molecule: C[C@@H]1CCCCO[C@H](CN(C)S(C)(=O)=O)[C@H](C)CN([C@@H](C)CO)C(=O)c2cc(NS(=O)(=O)c3ccc(Cl)cc3)ccc2O1
  A1 apoptosis 2: 1.8

Going on with the list:
Structure | A1 apoptosis 2
C[C@H]1CCCCO[C@H](CN(C)C(=O)C2CCCCC2)[C@@H](C)CN([C@@H](C)CO)C(=O)c2cc(NC(=O)NC3CCCCC3)ccc2O1 | 0.1
Cc1ccc(S(=O)(=O)Nc2ccc3c(c2)C(=O)N([C@@H](C)CO)C[C@H](C)[C@H](CN(C)Cc2ccccc2)OCCCC[C@@H](C)O3)cc1 | -0.6
Cc1noc(C)c1S(=O)(=O)Nc1ccc2c(c1)C(=O)N([C@H](C)CO)C[C@@H](C)[C@@H](CN(C)C(=O)CCC(F)(F)F)OCCCC[C@@H](C)O2 | 0.5
O=C(N/N=C/c1cc(Br)cc(Br)c1O)c1ccccc1O | -6.9
C[C@H]1CN([C@@H](C)CO)C(=O)Cc2cc(NS(=O)(=O)c3ccccc3)ccc2O[C@H]1CN(C)C(=O)NC1CCCCC1 | -1.9
C[C@H]1CN([C@@H](C)CO)C(=O)Cc2cc(NC(=O)Nc3ccc(F)cc3)ccc2O[C@@H]1CN(C)Cc1ccc(C(=O)Nc2ccccc2N)cc1 | -0.6
COc1cc(CO)cc(I)c1O[C@H]1C=C(C(=O)NCCO)C[C@@H](NCc2ccccc2F)[C@@H]1O | 0.1
COc1ccc(S(=O)(=O)Nc2cccc3c2O[C@H](CN(C)C(=O)NC2CCCCC2)[C@H](C)CN([C@@H](C)CO)C3=O)cc1 | -0.8
COc1ccc(S(=O)(=O)N(C)C[C@@H]2Oc3ccc(NS(C)(=O)=O)cc3C(=O)N([C@H](C)CO)C[C@@H]2C)cc1 | 0.5
CC(C)NC(=O)Nc1ccc2c(c1)C(=O)N([C@H](C)CO)C[C@@H](C)[C@@H](CN(C)S(=O)(=O)c1cccs1)OCCCC[C@@H](C)O2 | 0.1
C=CCN1C(=O)[C@@]2(Cc3ccccc3)N=C(c3ccc(OCCCO)cc3)O[C@H]2c2ccccc21 | -0.1
Cc1ccc(S(=O)(=O)N(C)C[C@H]2Oc3ccc(NS(=O)(=O)c4ccccc4)cc3CC(=O)N([C@@H](C)CO)C[C@H]2C)cc1 | -0.2
CC(C)NC(=O)Nc1ccc2c(c1)C(=O)N([C@H](C)CO)C[C@@H](C)[C@H](CN(C)C(=O)c1ccccc1)OCCCC[C@H](C)O2 | -0.9
CNC[C@@H]1Oc2c(NC(=O)c3ccc(-c4nccs4)cc3)cccc2C(=O)N([C@@H](C)CO)C[C@@H]1C | 0.2
Cc1noc(C)c1S(=O)(=O)Nc1ccc2c(c1)CC(=O)N([C@H](C)CO)C[C@@H](C)[C@H](CN(C)C(=O)Nc1ccc(F)cc1)O2 | 0.0
COc1ccc(S(=O)(=O)N(C)C[C@H]2OCc3cn(nn3)CCCC(=O)N([C@H](C)CO)C[C@@H]2C)cc1 | -0.3
C[C@H](CO)N1C[C@H](C)[C@@H](CN(C)C(=O)C2CCCCC2)OCCCC[C@H](C)Oc2ccc(NS(=O)(=O)c3ccc(F)cc3)cc2C1=O | -0.5
C[C@@H]1CCCCO[C@H](CN(C)C(=O)Nc2cccc3ccccc23)[C@H](C)CN([C@@H](C)CO)C(=O)c2cc(NS(C)(=O)=O)ccc2O1 | 0.8
C[C@H](CO)N1C[C@H](C)[C@H](CN(C)C(=O)Nc2cccc3ccccc23)Oc2ccc(NC(=O)C3CC3)cc2CC1=O | 1.4
C[C@H]1CN([C@@H](C)CO)C(=O)c2cc(NC(=O)C3CCCCC3)ccc2O[C@H]1CN(C)S(=O)(=O)c1ccc(F)cc1 | -0.6
COc1cc(Br)cc(/C=N/NC(=O)CCCCCC(=O)Nc2ccccc2O)c1O | -0.5
C[C@@H]1CN([C@@H](C)CO)C(=O)c2cc(NS(=O)(=O)c3ccccc3)ccc2O[C@@H](C)CCCCO[C@H]1CN(C)C(=O)CCC(F)(F)F | 0.4
C[C@H](CO)N1C[C@H](C)[C@H](CN(C)S(C)(=O)=O)Oc2ncc(-c3cccc(F)c3)cc2C1=O | 0.4
C[C@@H]1CN([C@@H](C)CO)C(=O)c2cccc(NC(=O)Nc3ccc(C(F)(F)F)cc3)c2O[C@H]1CN(C)Cc1ccc(C(=O)O)cc1 | 0.4
C[C@@H]1CCCCO[C@H](CN(C)C(=O)Cc2ccccc2)[C@H](C)CN([C@@H](C)CO)C(=O)c2cc(NS(=O)(=O)c3cccs3)ccc2O1 | -1.8
C[C@H](CO)N1C[C@H](C)[C@H](CN(C)Cc2ccc(C(F)(F)F)cc2)Oc2ccc(NC(=O)CCN3CCOCC3)cc2CC1=O | 0.4
C[C@H]1CN([C@@H](C)CO)C(=O)c2cccc(NC(=O)c3nc4ccccc4s3)c2O[C@H]1CN(C)CC1CCCCC1 | -0.2
C[C@H](CO)N1C[C@H](C)[C@@H](CN(C)Cc2ccc(C(=O)O)cc2)Oc2c(cccc2N(C)C)C1=O | -1.4
C[C@H]1CN([C@@H](C)CO)C(=O)c2cc(NC(=O)C3CC3)ccc2O[C@H]1CN(C)Cc1ccncc1 | 0.1
C[C@H]1CN([C@@H](C)CO)C(=O)Cc2cc(NC(=O)Nc3ccc(F)cc3)ccc2O[C@@H]1CN(C)Cc1ccc(-c2ccccc2)cc1 | 0.3
C[C@H](CO)N1C[C@H](C)[C@H](CN(C)C(=O)CCCN(C)C)OCCCC[C@H](C)Oc2ccc(NC(=O)Nc3ccc(F)cc3)cc2C1=O | -0.8
C[C@@H]1CN([C@H](C)CO)C(=O)c2cc(NC(=O)CCC(F)(F)F)ccc2O[C@@H](C)CCCCO[C@H]1CN(C)S(=O)(=O)c1ccc(Cl)cc1 | -1.4
COc1ccc(S(=O)(=O)N(C)C[C@H]2Oc3ccc(NC(=O)Nc4ccc(C(F)(F)F)cc4)cc3C(=O)N([C@H](C)CO)C[C@@H]2C)cc1 | 0.6
C[C@@H]1CN([C@@H](C)CO)C(=O)c2cc(NC(=O)Cn3cnnn3)ccc2O[C@H]1CN(C)Cc1ccc(-c2ccccc2)cc1 | -0.9
C[C@@H]1CN([C@@H](C)CO)C(=O)c2cccc(NC(=O)C3CCCCC3)c2O[C@@H]1CN(C)C(=O)Nc1cccc2ccccc12 | 0.4

Arranged by length of the SMILES (ascending): five of the compounds above
Structure | A1 apoptosis 2
C[C@H]1CN([C@@H](C)CO)C(=O)c2cccc(NC(=O)c3nc4ccccc4s3)c2O[C@H]1CN(C)CC1CCCCC1 | -0.2
C[C@H](CO)N1C[C@H](C)[C@H](CN(C)Cc2ccc(C(F)(F)F)cc2)Oc2ccc(NC(=O)CCN3CCOCC3)cc2CC1=O | 0.4
C[C@@H]1CN([C@@H](C)CO)C(=O)c2cccc(NC(=O)C3CCCCC3)c2O[C@@H]1CN(C)C(=O)Nc1cccc2ccccc12 | 0.4
C[C@H]1CN([C@@H](C)CO)C(=O)Cc2cc(NC(=O)Nc3ccc(F)cc3)ccc2O[C@@H]1CN(C)Cc1ccc(-c2ccccc2)cc1 | 0.3
C[C@@H]1CN([C@H](C)CO)C(=O)c2cc(NC(=O)CCC(F)(F)F)ccc2O[C@@H](C)CCCCO[C@H]1CN(C)S(=O)(=O)c1ccc(Cl)cc1 | -1.4

High-throughput results from PubChem BioAssay.

Only part of the results is shown, so the mix of outcomes need not match the whole.
